# Screens: PubChem, Broad Institute
# rRNA inh HTS = selective bacterial rRNA inhibition in E. coli | E. coli WT GFP vs humanized-ribosome RFP mutants, fluorescence, 24 h; hits give low values; DMSO median 0, no signal -100 | 1.6% of 350,000 active | GFP signal change (wild-type ribosome), % (no concentration beside the values);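 active means significant combined selectivity score with lowered wild-type GFP, culture density cut under 30%, mutant RFP and density less affected; inactive means any of these conditions unmet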; further: one replicate is shown; some compounds called inactive have numbers as strong as hits
# MLL AF4-AF9 inh = inhibitors of human MLL-AF4/AF9 interaction; 0.47% of 350,000 active; inhibition, % at 10 µM; AlphaScreen, biotin-AF4 peptide binding to FLAG-AF9;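 active means every replicate reaching a set inhibition limit, whatever the replicate mean, cut at about 25% in these data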;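 further: 0% = plate neutral control median and 100% = total signal loss; the record names both 10 and 1 µM as test concentration; the first replicate is given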
# Target sequence (P42568 whole entry, looked up): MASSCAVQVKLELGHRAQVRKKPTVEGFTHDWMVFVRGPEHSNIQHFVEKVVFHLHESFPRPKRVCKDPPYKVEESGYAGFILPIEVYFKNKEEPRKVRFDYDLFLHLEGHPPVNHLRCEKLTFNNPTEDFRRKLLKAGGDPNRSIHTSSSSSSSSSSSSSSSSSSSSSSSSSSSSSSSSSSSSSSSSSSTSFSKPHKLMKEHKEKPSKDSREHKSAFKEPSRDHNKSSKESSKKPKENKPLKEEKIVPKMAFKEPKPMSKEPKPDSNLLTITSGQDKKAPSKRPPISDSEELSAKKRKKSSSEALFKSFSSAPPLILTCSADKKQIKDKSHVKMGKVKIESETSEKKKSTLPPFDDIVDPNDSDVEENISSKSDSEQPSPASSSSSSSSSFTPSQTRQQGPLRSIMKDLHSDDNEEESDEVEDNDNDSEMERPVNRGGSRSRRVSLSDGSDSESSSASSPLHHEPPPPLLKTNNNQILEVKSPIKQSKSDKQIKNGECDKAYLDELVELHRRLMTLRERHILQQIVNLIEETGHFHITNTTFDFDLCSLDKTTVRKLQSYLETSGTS
# rRNA inh HTS OD600 = recorded beside rRNA inh HTS, whose call it bears; OD600 change, %; measured here: OD600 growth;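 optical density of the mix in the first replicate; 0 = DMSO median and -100 = no signal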
# rRNA inh HTS RFP = recorded beside rRNA inh HTS, whose call it bears; RFP signal change, %; measured here: RFP humanized mutant strains;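 first replicate; 0 = DMSO median and -100 = no signal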
# The depositor's hits bear a star. Only part of the results is shown, so the mix of outcomes need not match the whole.
rRNA inh HTS | rRNA inh HTS OD600 | rRNA inh HTS RFP | MLL AF4-AF9 inh | Structure
-8 | -26 | 4.8 | -0.9 | OCCOC1CCCc2oc(-c3ccccc3)c(C#CC3(O)CCCCC3)c21 (configuration not stated)
-3 | 0 | -1.2 | -0.4 | CO[C@@H]1CN(C)C(=O)c2ccc(NS(=O)(=O)c3ccc(Cl)cc3)cc2OC[C@@H](C)N(C(=O)NC(C)C)C[C@@H]1C
-2 | 2 | 0.0 | 2.8 | CN1[C@@H]2c3ccc(-c4cncnc4)c(=O)n3C[C@@H]2[C@@H](CO)[C@@H]1C(=O)NC1Cc2ccccc2C1
-3 | -11 | 0.0 | -0.8 | Cc1noc(C)c1NC(=O)Nc1ccc2c(c1)C(=O)N([C@H](C)CO)C[C@@H](C)[C@H](CN(C)C(=O)Nc1ccc(F)cc1)OCCCC[C@@H](C)O2
-4 | -6 | -3.1 | 2.2 | COc1ccc2c3c(n(C)c2c1)[C@@H](CO)N(C(=O)Nc1ccc(F)cc1)CC31CN(C(=O)c2cccnc2)C1
2 | 7 | -2.5 | -0.4 | Cc1ccc(S(=O)(=O)Nc2ccc3c(c2)CC(=O)N([C@H](C)CO)C[C@@H](C)[C@@H](CN(C)CC2CC2)O3)cc1
1 | 0 | 1.1 | -6.5 | Cc1cccc(S(=O)(=O)N2CC[C@@H]3[C@H]2c2cc(-c4ccc(C#N)cc4)ccc2N(C)[C@H]3CO)c1
5 | -4 | -0.4 | 1.4 | CCCS(=O)(=O)NC(=O)C1(C)CCN(C(=O)COCc2ccccc2)C1 (configuration not stated)
1 | 2 | -0.4 | -0.8 | Cc1ccc(S(=O)(=O)N(C)C[C@@H]2Oc3c(NC(=O)NC4CCCCC4)cccc3C(=O)N([C@@H](C)CO)C[C@H]2C)cc1
1 | 3 | -2.3 | -14 | C[C@H](O)C#Cc1ccc2c(c1)O[C@@H](CN(C)C(=O)C1CC1)[C@@H](C)CN([C@@H](C)CO)S2(=O)=O
-1 | 3 | 0.5 | -4.5 | Cc1noc(C)c1S(=O)(=O)Nc1ccc2c(c1)C(=O)N([C@@H](C)CO)C[C@@H](C)[C@H](CN(C)C(=O)Nc1cccc3ccccc13)OCCCC[C@H](C)O2
-10 | -7 | -10 | 2.4 | Cc1cccc(C)c1Cn1c(C)c(C(=O)NCc2cccc(Cl)c2)sc1=O
1 | 3 | 0.1 | 16 | C[C@H]1CCCCO[C@@H](CN(C)Cc2ccccc2)[C@@H](C)CN([C@@H](C)CO)C(=O)c2cc(N(C)C)ccc2O1
6 | 10 | -5.1 | -6.2 | C[C@H](CO)N1C[C@H](C)[C@H](CN(C)Cc2ccccn2)Oc2ncc(C#CC(C)(C)O)cc2C1=O
1 | 4 | -1.0 | -0.4 | O=C(CC1CC1)N[C@@H]1CC[C@@H](CCNS(=O)(=O)c2ccc(Cl)cc2)O[C@H]1CO
-2 | -6 | 1.0 | 1.2 | COc1ccc(CN(C)C[C@H]2Oc3ccc(NC(=O)NC4CCCCC4)cc3CC(=O)N([C@@H](C)CO)C[C@H]2C)cc1
-9 | -15 | -4.2 | 1.9 | CCOC(=O)C1=CCN(S(=O)(=O)c2ccccc2[N+](=O)[O-])C1c1ccc(C)cc1 (configuration not stated)
3 | 1 | -3.0 | -2.1 | C[C@@H]1CN([C@H](C)CO)C(=O)c2cc(NS(=O)(=O)c3cccs3)ccc2O[C@@H](C)CCCCO[C@@H]1CN(C)C(=O)CCCN(C)C
2 | 5 | -1.1 | -7.9 | CO[C@@H]1CN(C)C(=O)c2cc(NC(=O)C3CCC3)ccc2OC[C@H](C)NC[C@@H]1C
-47 | -53 | 14 | -0.7 | CCc1nc2ccc(C(=O)Nc3cccc(OCC(=O)N(C)C)c3)cn2c1N(C)Cc1ccc(OC)cc1
0 | 12 | -1.9 | -3.2 | CN(C)C(=O)C[C@H]1C[C@@H]2c3cc(NC(=O)C4CCOCC4)ccc3O[C@@H]2[C@@H](CO)O1
1 | -4 | -1.1 | 1.5 | C[C@H]1CN([C@@H](C)CO)C(=O)Cc2cc(NC(=O)CCCN(C)C)ccc2O[C@@H]1CN(C)CC1CCCCC1
1 | -7 | 4.7 | 0.1 | COc1ccc(S(=O)(=O)Nc2ccc3c(c2)C(=O)N([C@@H](C)CO)C[C@H](C)[C@H](CN(C)C(=O)Cc2ccccc2)OCCCC[C@H](C)O3)cc1
-2 | -15 | 3.6 | -1.7 | C[C@@H]1CN([C@@H](C)CO)C(=O)c2cc(NS(=O)(=O)c3ccc(Cl)cc3)ccc2O[C@@H]1CN(C)S(=O)(=O)c1ccc(Cl)cc1
-2 | 0 | -0.7 | -0.7 | CCCNC(=O)C[C@H]1CC[C@H]2[C@H](COc3ccc(NC(=O)NCC)cc3C(=O)N2C)O1

# The list goes on (5 carried over from the part before).
rRNA inh HTS | rRNA inh HTS OD600 | rRNA inh HTS RFP | MLL AF4-AF9 inh | Structure
0 | 12 | -1.9 | -3.2 | CN(C)C(=O)C[C@H]1C[C@@H]2c3cc(NC(=O)C4CCOCC4)ccc3O[C@@H]2[C@@H](CO)O1
1 | -4 | -1.1 | 1.5 | C[C@H]1CN([C@@H](C)CO)C(=O)Cc2cc(NC(=O)CCCN(C)C)ccc2O[C@@H]1CN(C)CC1CCCCC1
1 | -7 | 4.7 | 0.1 | COc1ccc(S(=O)(=O)Nc2ccc3c(c2)C(=O)N([C@@H](C)CO)C[C@H](C)[C@H](CN(C)C(=O)Cc2ccccc2)OCCCC[C@H](C)O3)cc1
-2 | -15 | 3.6 | -1.7 | C[C@@H]1CN([C@@H](C)CO)C(=O)c2cc(NS(=O)(=O)c3ccc(Cl)cc3)ccc2O[C@@H]1CN(C)S(=O)(=O)c1ccc(Cl)cc1
-2 | 0 | -0.7 | -0.7 | CCCNC(=O)C[C@H]1CC[C@H]2[C@H](COc3ccc(NC(=O)NCC)cc3C(=O)N2C)O1
3 | 1 | 6.4 | 1.4 | CCOC(=O)[C@]12Cc3c(cc(OC)c(OC)c3OC)[C@H]1N(Cc1ccccc1)C(=O)c1cc(OC)ccc12
-3 | -15 | -1.5 | 0.2 | Cc1noc(C)c1S(=O)(=O)Nc1ccc2c(c1)C(=O)N([C@@H](C)CO)C[C@@H](C)[C@@H](CN(C)S(=O)(=O)c1ccc(F)cc1)O2
4 | 14 | 4.1 | -13 | O=C(NC1CCCCC1)N1CC(=O)N2[C@@H](CO)[C@H](c3ccc(-c4cccnc4)cc3)[C@@H]2C1
1 | 5 | -0.8 | -3.3 | CC(C)CN(C[C@H]1N[C@H](CO)[C@@H]1c1ccccc1)C(=O)C1CCCC1
-56 | -75 | -6.3 | 18 | OC[C@@H]1[C@H](c2ccc(-c3ccc(F)cc3)cc2)[C@H]2CN(CCC(F)(F)F)CCCCN12
-22 | -33 | 25 | 19 | COc1ccc2c3c(n(C)c2c1)[C@H](CO)N(C(=O)Nc1ccc(F)cc1)CC31CN(Cc2ccccc2F)C1
-41 | -72 | -6.2 | 12 | C[C@H]1CN([C@@H](C)CO)S(=O)(=O)c2ccc(C3=CCCCC3)cc2O[C@H]1CN(C)Cc1ccccn1
3 | 3 | -1.5 | -0.3 | COc1ccc2c3c(n(C)c2c1)[C@@H](CO)N(C(=O)NC1CCCCC1)CC31CCN(C)CC1
3 | 7 | -1.0 | -7.1 | C[C@H](CO)N1C[C@H](C)[C@@H](CN(C)CC2CCCC2)Oc2ncc(-c3cccc(F)c3)cc2C1=O
6 | 10 | 1.8 | 3.3 | COc1cccc(C(NC(=O)C2CCN(CCCOc3ccccc3)CC2)c2ccccn2)c1 (configuration not stated)
2 | 0 | 3.0 | 2.1 | C[C@H](CO)N1C[C@H](C)[C@H](CN(C)Cc2ccc(Oc3ccccc3)cc2)Oc2ccc(NS(=O)(=O)c3ccc(F)cc3)cc2CC1=O
3 | 3 | -0.2 | -0.5 | CC(=O)Nc1ccc2c(c1)C(=O)N(C)[C@H]1CC[C@@H](CC(=O)NCc3ccc(Cl)cc3)O[C@@H]1CO2
1 | 2 | -1.0 | -1.1 | COc1ccccc1CNC(=O)C[C@H]1C[C@H]2c3cc(NC(=O)CN(C)C)ccc3O[C@H]2[C@@H](CO)O1
-8 | -5 | -1.6 | 2.9 | N#Cc1ccc(-c2nc3ccc(Br)cn3c2Cc2ccccc2C(F)(F)F)cc1
0 | -9 | 2.4 | 0.9 | COc1ccc(NC(=O)Nc2ccc3c(c2)CC(=O)N([C@@H](C)CO)C[C@H](C)[C@H](CN(C)S(=O)(=O)c2ccc(F)cc2)O3)cc1
-7 | -3 | 2.6 | -6.5 | COc1ccc(-c2cnc3c(c2)C(=O)N([C@H](C)CO)C[C@H](C)[C@@H](CN(C)C(=O)Cc2ccncc2)O3)cc1
-1 | -4 | 0.8 | -0.8 | CNC(=O)C[C@H]1CC[C@H]2[C@@H](COc3ccc(NC(=O)Nc4ccc(F)c(F)c4)cc3C(=O)N2C)O1
-3 | -2 | 14 | 2.3 | COc1ccccc1N(C)S(=O)(=O)c1ccc(Cl)c(C(=O)Nc2ccccc2N2CCOCC2)c1
-34 | -60 | 13 | 5.9 | CCc1c(-c2cccc(OC)c2)ncn1Cc1cccc(-c2ccccc2)c1
2 | 1 | 2.0 | -2.8 | C[C@H](CO)N1C[C@H](C)[C@@H](CN(C)Cc2ccc(C(F)(F)F)cc2)Oc2ccc(NS(=O)(=O)c3cn(C)cn3)cc2C1=O
6 | 3 | -4.1 | -1.9 | CC(C)NC(=O)N(C)C[C@H]1Oc2cc(C#CCN(C)C)ccc2S(=O)(=O)N([C@H](C)CO)C[C@H]1C
6 | 0 | 4.4 | -1.0 | C[C@H](CO)N1C[C@H](C)[C@H](CN(C)C(=O)Nc2cccc3ccccc23)Oc2ccc(NS(C)(=O)=O)cc2CC1=O
-3 | 2 | 3.9 | -9.3 | CN(C[C@H]1N[C@@H](CO)[C@H]1c1ccc(-c2cccc(F)c2)cc1)C(=O)CC1CC1
-7 | -8 | 7.2 | -13 | O=C(C[C@H]1CC[C@@H](NC(=O)Nc2cc(F)ccc2F)[C@@H](CO)O1)Nc1ccc(-c2ccccc2)cc1
1 | 5 | 0.1 | 1.2 | C[C@H]1CN([C@@H](C)CO)C(=O)c2cccc(NS(=O)(=O)c3ccccc3)c2O[C@@H]1CN(C)CC1CCCCC1
-2 | 13 | -0.8 | 0.5 | COc1ccc(S(=O)(=O)N(C)C[C@H]2Oc3c(NC(=O)C4CC4)cccc3C(=O)N([C@@H](C)CO)C[C@@H]2C)cc1
2 | 0 | -1.8 | -3.0 | C[C@@H]1CN([C@H](C)CO)C(=O)c2cccc(NC(=O)c3cnccn3)c2O[C@@H]1CN(C)C
6 | 12 | -2.3 | -0.8 | C[C@H](CO)N1C[C@H](C)[C@H](CN(C)C(=O)c2ccncc2)Oc2ncc(C#C[C@@H](C)O)cc2C1=O
4 | 8 | -1.6 | -0.1 | CCCCC[C@H](C)N1C[C@@H](COCc2ccccc2)Oc2cc(N3CC[C@H](O)C3)ccc2S1(=O)=O
-7 | -3 | 0.1 | -0.6 | O=C(C[C@H]1CC[C@@H]2[C@H](COC[C@@H](O)CN2Cc2cccc(C(F)(F)F)c2)O1)NCc1ccc(F)cc1
-9 | -11 | -0.8 | -1.9 | CC1(C)CN(CCc2ccccc2)C(=O)[C@H]1CC(=O)Nc1ccccc1
5 | 14 | 0.6 | -0.6 | CN(C)CC#Cc1ccc([C@@H]2[C@H]3CN(C(=O)CN(C)C)CCCCN3[C@H]2CO)cc1
0 | -8 | -1.3 | -0.4 | C[C@@H]1CN([C@H](C)CO)C(=O)c2cc(C#CC3CC3)cnc2O[C@@H]1CN(C)C(=O)c1ccccc1
6 | 8 | -3.3 | 0.3 | COCc1cn(CC[C@@H]2CC[C@@H](NC(=O)Nc3ccc(F)cc3)[C@H](CO)O2)nn1
-25 | -37 | 7.7 | -1.4 | O=C(Nc1ccc(Cl)cc1)N1C[C@H]2[C@@H](c3ccccc31)[C@@H](CO)N2C(=O)c1cccnc1
4 | -38 | -3.0 | 5.8 | N#C[C@@H]1[C@@H](c2ccccc2-c2ccc(F)cc2)[C@H](CO)N1C(=O)NC1CCCCC1
-1 | -4 | -3.9 | -13 | CCC(=O)N1CC(=O)N2[C@H](CO)[C@@H](c3ccc(C#Cc4cccnc4)cc3)[C@@H]2C1
3 | 3 | 1.2 | -2.9 | O=C(c1ccncc1)N1CC(=O)N2[C@H](C1)[C@H](c1ccc(-c3ccccc3F)cc1)[C@@H]2CO
4 | -1 | -2.9 | 2.5 | CNC[C@@H]1OCCCC[C@@H](C)Oc2ccc(NC(=O)NC3CCCCC3)cc2C(=O)N([C@H](C)CO)C[C@H]1C
-1 | 4 | 10 | -4.7 | COc1ccc(NC(=O)Nc2ccc3c(c2)C(=O)N([C@@H](C)CO)C[C@H](C)[C@H](CN(C)Cc2ccc(C(F)(F)F)cc2)OCCCC[C@H](C)O3)cc1
7 | -3 | -0.3 | -2.1 | C[C@H](CO)N1C[C@H](C)[C@H](CN(C)C(=O)c2ccc3c(c2)OCO3)Oc2ncc(C3=CCCCC3)cc2C1=O
-1 | -11 | -0.9 | -5.6 | Cc1ccc(S(=O)(=O)Nc2ccc3c(c2)C(=O)N([C@H](C)CO)C[C@H](C)[C@@H](CN(C)C)O3)cc1
-31 | -28 | -0.9 | -4.8 | COC(=O)c1ccc2nc(-c3ccc(OC)c(OC)c3)c(Cc3cccc(F)c3)n2c1
-16 | -29 | -3.3 | -7.7 | COCCNc1nc(-c2ccc(Cl)cc2C)c2sccc2n1
-6 | -8 | -2.7 | 0.5 | COc1ccc(NC(=O)Nc2ccc3c(c2)CC(=O)N([C@H](C)CO)C[C@H](C)[C@@H](CN(C)S(=O)(=O)c2ccc(Cl)cc2)O3)cc1
1 | -2 | -1.4 | -11 | Cc1noc(C)c1NC(=O)N(C)C[C@@H]1Oc2ccc(NC(=O)Cc3cn(C)c4ccccc34)cc2C(=O)N([C@H](C)CO)C[C@@H]1C
